Screening results as filed in PubChem BioAssay.
hNpr1 antagonist: Natriuretic polypeptide receptor (hNpr1) antagonism - Primary qHTS; Atrial natriuretic peptide receptor 1 (Homo sapiens), P16066; HEK293 hNpr1 GloSensor cGMP, ANP-stimulated luminescence; Potency, µM (titrated, usually from 46.3 µM), without a hit: at the top dose activity change, negative = inhibition, usual class: inhibitors; 76,000 compounds, 1.6% hits; AID 1347048, 2019; active = well fitted inhibition curve with a large enough effect; inconclusive = small, poorly fitted or top-dose-only effect; inactive = no such curve, though single readings can be large or run the other way;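 note: nearly all actives have a fitted effect of over 60% in size; nearly all hits also lower the signal before the agonist is added; a reference antagonist and vehicle were the controls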
Target sequence (P16066 whole entry, looked up): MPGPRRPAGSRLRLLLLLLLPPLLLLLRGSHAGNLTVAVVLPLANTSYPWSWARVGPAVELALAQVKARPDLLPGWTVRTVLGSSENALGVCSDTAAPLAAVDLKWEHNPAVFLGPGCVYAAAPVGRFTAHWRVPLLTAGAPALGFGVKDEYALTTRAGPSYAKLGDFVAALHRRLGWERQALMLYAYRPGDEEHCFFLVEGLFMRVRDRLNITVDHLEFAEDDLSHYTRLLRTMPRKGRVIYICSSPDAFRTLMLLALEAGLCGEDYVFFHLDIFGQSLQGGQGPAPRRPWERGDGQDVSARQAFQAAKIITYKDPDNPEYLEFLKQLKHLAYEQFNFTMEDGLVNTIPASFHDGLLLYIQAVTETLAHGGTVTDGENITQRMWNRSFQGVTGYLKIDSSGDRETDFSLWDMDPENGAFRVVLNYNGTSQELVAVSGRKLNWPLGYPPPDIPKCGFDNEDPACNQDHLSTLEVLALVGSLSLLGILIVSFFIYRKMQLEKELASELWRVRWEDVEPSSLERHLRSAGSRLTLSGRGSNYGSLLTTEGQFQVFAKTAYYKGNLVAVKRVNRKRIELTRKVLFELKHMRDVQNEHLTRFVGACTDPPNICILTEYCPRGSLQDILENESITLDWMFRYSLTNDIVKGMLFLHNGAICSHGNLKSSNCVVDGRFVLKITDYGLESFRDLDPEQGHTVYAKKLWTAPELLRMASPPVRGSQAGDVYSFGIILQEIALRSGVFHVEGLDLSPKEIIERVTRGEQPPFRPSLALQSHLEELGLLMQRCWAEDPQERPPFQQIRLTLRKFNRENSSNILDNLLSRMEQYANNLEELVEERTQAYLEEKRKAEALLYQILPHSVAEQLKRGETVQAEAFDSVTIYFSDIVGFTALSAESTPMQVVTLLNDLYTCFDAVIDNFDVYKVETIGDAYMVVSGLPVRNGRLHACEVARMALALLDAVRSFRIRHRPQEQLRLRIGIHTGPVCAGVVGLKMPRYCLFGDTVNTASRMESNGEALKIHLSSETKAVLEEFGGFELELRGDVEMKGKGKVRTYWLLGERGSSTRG
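Compound pre-incubated 30 min at room temperature on GloSensor-loaded HEK293 cells stably carrying hNpr1 and the pGS-40F cGMP biosensor. Stimulation uses hNppA at 0.1 nM final; luminescence is taken at baseline and 20 min post-agonist.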
* = called active by the depositor; ? = inconclusive; [ ] = dose if it differs, or a comment. % is set by controls: 0 for no effect and ±100 for the full control effect; potency is the fitted concentration of half-maximal effect. Some of the compounds tested; count on the stated rates, not on these rows.

No.	SMILES	hNpr1 antagonist
1	O=C(NC1CCCCC1)[C@@H]1C[C@@H](O)CN1C1CCN(C(=O)c2ccccc2)CC1	8%
2	COc1ccccc1-c1[nH]ncc1CN1CCCCCNC(=O)[C@@H]2CCC[C@@H]21	-1%
3	Cc1cc(Cl)ccc1-n1nc(C)c([C@@H]2C=C[C@@H](NC(=O)CCC(=O)O)C2)c1C	1%[70.6 µM]
4	CCCNC(=O)NCCn1c(C)cnc1-c1ccncc1	3%
5	Cn1cccc1CN1CCC(n2cc[nH]c2=O)CC1	-2%[70.6 µM]
6	Cc1noc(-c2cn(C3CCN(C(=O)c4ccc(OC(F)(F)F)cc4)C3)nn2)n1 (configuration not stated)	-14%
7	Cc1nc(CCn2ccnc2C)n(-c2ccc(S(N)(=O)=O)cc2)n1	-2%
8	COc1cc(OC)cc(C(=O)N2CCCC(c3noc(COc4ccccc4)n3)C2)c1 (configuration not stated)	0%
9	Cc1ccc(C(=O)N2[C@@H]3CC[C@H]2CC(NC(=O)c2cnc(C)cn2)C3)cc1 (some centres not stated)	10%
10	COc1ccc(C(=O)N2C[C@@H](Oc3cccnc3)C[C@H]2C(N)=O)cc1F	-1%
11	O=C(c1ccc(F)c(F)c1)N1CCN(c2cc(-c3ccc(F)cc3)[nH]n2)CC1	?
12	Cc1ccc(CN2Cc3[nH]cnc3C[C@H]2C(=O)N2CCC(Cc3ccccc3)CC2)cc1	-14%[70.6 µM]
13	O=C(CN1CCOCC1)N1CCC(c2cc(N3CCCC3)ncn2)CC1	3%
14	COc1ccc(CN[C@H]2[C@H](O)[C@H](O)C[C@@H]2c2ccc(C(F)(F)F)cc2)cc1	-15%[70.6 µM]
15	CCC(=O)N1CCC(Cc2noc(-c3ccncc3)n2)C1 (configuration not stated)	-1%
16	COc1cccc(C(=O)N2CCC(n3cc(-c4nc(-c5ccccc5)no4)nn3)C2)c1 (configuration not stated)	11µM*
17	COCCCNC(=O)C1(CCO)CCN(Cc2ccccc2)C1 (configuration not stated)	3%
18	Cc1cc(C)n2nc(C(=O)NCC3COc4ccccc4C3)cc2n1 (configuration not stated)	-1%
19	CN1C[C@@H](NC(=O)c2cccnc2)C[C@H]1c1nc(-c2cccnc2)no1	-4%[70.6 µM]
20	O=C1CCN(C(=O)Nc2ccccc2)CCOCCN1	0%
21	CC(C)c1cccc(NC(=O)c2cc3n(n2)CC(c2ccc(Cl)cc2)OC3)c1 (configuration not stated)	-3%
22	CC(C)c1cccc(NC(=O)c2ccc(CN3C(=O)NC4(CCOCC4)C3=O)cc2)c1	11µM*
23	O=C1CCC(C(=O)N2CCOCC2)CN1CCCc1ccccc1 (configuration not stated)	5%
24	O=C(Nc1ccccc1)N1CCC(Oc2ccccc2-c2nc(-c3cnccn3)no2)C1 (configuration not stated)	0%
25	Cc1ccsc1C(=O)N1CCN(C(=O)c2nnn3c2COC(c2ccc(Cl)cc2)C3)CC1 (configuration not stated)	?
26	CO[C@H]1C(=O)N(C(C)C)[C@H]1C1CCN(C(=O)Cn2ccnc2)CC1	-1%
27	COc1cccc(C(=O)N2CCn3c(nn(-c4ccc(C)cc4)c3=O)C2)c1	0%
28	O=C(c1ccncc1)N1CCCC(Cc2nc(C3CCOCC3)no2)C1 (configuration not stated)	20%
29	CC(=O)NC(CO)C(=O)N1CCC(O)(c2ccc(C)cn2)CC1 (configuration not stated)	11%
30	COCc1nncn1C1CCN(C(=O)c2ccc(OC)cc2)CC1	0%
31	CN1CCN([C@H]2CCN(C(=O)c3ncc(F)cc3F)C[C@H]2CCCO)CC1	2%
32	O=C1NCCCCCN(C(=O)c2ccoc2)[C@H]2CCC[C@@H]12	-3%
33	COC(=O)CCCNC(=O)C1c2ccccc2C(=O)N(c2ccccc2)C12CCCCC2 (configuration not stated)	-16%
34	CN1C(=O)CC(C(=O)O)C12CCN(Cc1nn(C)c3cccc(Cl)c13)CC2 (configuration not stated)	5%
35	COc1ccc(NC(=O)N2CCCCC2c2nc(C3CC3)n[nH]2)cc1 (configuration not stated)	-3%
36	Cn1ccc2c(C(=O)NCc3cccnc3)nc(-c3ccccc3)cc21	?
37	COCCN[C@H]1[C@@H]2OC[C@@H](O2)[C@@H](NCc2cnc3ccccc3c2)[C@@H]1O	-4%[70.6 µM]
38	CCn1cc(CN2CCc3ccccc3C2)ccc1=O	-3%
39	COc1cccc(CNC(=O)N2CCCC(Cn3c(C)nc4cccnc43)C2)c1 (configuration not stated)	1%
40	CCC(CC)NC(=O)c1ccc(-c2nnc3ccc(NC(=O)C4CCC4)cn23)cc1	-10%
41	C=CCS(=O)(=O)NCc1cccnc1N1CCN(c2ccccc2OC)CC1	-1%
42	Cc1nn(-c2ccc(F)cc2)c(Oc2ccccc2F)c1CCC(=O)NCC1CCCO1 (configuration not stated)	-19%
43	COc1ccc(C2Cn3nnc(-c4noc(-c5cc(F)ccc5F)n4)c3CO2)cc1 (configuration not stated)	1%
44	c1ccc(Cc2noc(-c3nc(-c4ccc5c(c4)OCO5)no3)n2)cc1	3%
45	CCc1nc(C)c(C(=O)N[C@H]2COC[C@H]2Cc2cc(C)no2)s1	3%
46	NC(=O)[C@H](Cc1ccccc1)N1CC[C@H]2CN(C(=O)C3CCCCC3)CC[C@H]2CC1=O	2%[70.6 µM]
47	CC(C)c1ccc(NC(=O)N2CCN(C)C3(CCC(=O)N(C)CC3)C2)cc1 (configuration not stated)	-3%
48	COc1cc(=O)n2c(c1C(=O)Nc1cccc(C(C)C)c1)CCCC2	2%
49	COCCOc1ccnc(-c2noc([C@@H]3CCCN3C3CCC3)n2)c1	3%[70.6 µM]
50	CCNC(=O)[C@@H]1C[C@H](NC(=O)c2ccc[nH]2)CN1C(=O)c1csc(C)n1	-1%
51	COCC(=O)N1CCC(c2nn(-c3ccc(Cl)cc3)c(=O)[nH]2)CC1	11%
52	O=C1c2cnc(-c3ccc(CO)cc3)nc2OCCN1Cc1ccc(F)cc1F	-16%[70.6 µM]
53	COc1cc(F)ccc1-c1nccc2c(=O)cc(N(C)C3CCOCC3)oc12	6%[70.6 µM]
54	O=C1NCCCCCCN(C(=O)NCc2ccccc2)[C@H]2C[C@H](c3nc(-c4cccnc4)no3)C[C@@H]12	-1%
55	CCOc1ccc(CN2CCc3nc(N4CCOCC4)[nH]c(=O)c3CC2)cc1OC	-1%
56	CCCCN1C(=O)[C@@H]2C[C@@H](O)CN2C2(CN(Cc3ccc(F)c(F)c3)C2)C1=O	5%[70.6 µM]
57	C=CCN(C)C(=O)C[C@@H]1c2nc(NC(=O)c3ccc(OC)cc3)sc2C[C@@H]2[C@](C)(CO)[C@H](O)CC[C@]21C	0%
58	Cc1nc(CN2CCOc3cc([S+](=O)([O-])Nc4ccccc4)ccc3C2)cs1	-26%[70.6 µM]
59	COC[C@@H]1CN(C(=O)c2cccc(OC(F)(F)F)c2)C[C@H]1C(N)=O	-2%
60	CN(c1ccccc1)c1ccc2nnc(-c3cc(C(=O)NCC4CCCO4)ccn3)n2n1 (configuration not stated)	-4%[70.6 µM]

Sorted by heavy-atom count (largest number first): part of the list above.
No.	SMILES	hNpr1 antagonist
37	COCCN[C@H]1[C@@H]2OC[C@@H](O2)[C@@H](NCc2cnc3ccccc3c2)[C@@H]1O	-4%[70.6 µM]
49	COCCOc1ccnc(-c2noc([C@@H]3CCCN3C3CCC3)n2)c1	3%[70.6 µM]
32	O=C1NCCCCCN(C(=O)c2ccoc2)[C@H]2CCC[C@@H]12	-3%

From entry 58 up to 60, copied from above:
No.	SMILES	hNpr1 antagonist
58	Cc1nc(CN2CCOc3cc([S+](=O)([O-])Nc4ccccc4)ccc3C2)cs1	-26%[70.6 µM]
59	COC[C@@H]1CN(C(=O)c2cccc(OC(F)(F)F)c2)C[C@H]1C(N)=O	-2%
60	CN(c1ccccc1)c1ccc2nnc(-c3cc(C(=O)NCC4CCCO4)ccn3)n2n1 (configuration not stated)	-4%[70.6 µM]

More results follow.
No.	SMILES	hNpr1 antagonist
61	COc1ccc(CN2CC3(CCN(C(=O)Cc4c(F)cccc4Cl)CC3)C2=O)cc1	-1%
62	O=c1[nH]nc2n1CCN(S(=O)(=O)c1cc(F)ccc1F)C2	-4%
63	CC(C)(C)CNC1(Cc2cc(CCO)on2)COC1	2%[70.6 µM]
64	COc1cccc(N2C(=O)NC(=NC3CCCCC3)C23CCN(C(=O)c2ccccc2)C3)c1 (configuration not stated)	-5%
65	CN(C)C[C@@H]1CN(c2ncccn2)C[C@H]1NC(=O)CCn1cccn1	-1%
66	COc1cncc(CN2CC[C@@H]3OCC(=O)N(C(C)C)[C@H]3CC2)c1	-14%[70.6 µM]
67	COc1ccc(N2CCN(C(=O)COc3ccc(-c4nnc5n4CCCC5)cc3)CC2)cc1	0%
68	CCN1c2cc(C(=O)NCc3cccs3)ccc2C(=O)N2CCCCC21 (configuration not stated)	-6%
69	O=C([C@@H]1C[C@H](Oc2cccnc2)CN1C(=O)c1n[nH]c2ccccc12)N1CCOCC1	3%
70	COc1ccc([C@H]2C[C@@H](O)[C@@H](O)[C@@H]2NC(=O)c2ccc3c(c2)OCCO3)cc1	-4%[70.6 µM]
71	Cc1nc(C2CC2)ncc1C(=O)N1CC[C@](C)(O)[C@@H](O)C1	5%
72	COCC1CN(C)CC12CCN(Cc1ccc(OC)cc1)CC2 (configuration not stated)	-4%
73	CC(=O)Nc1cccc(-c2cc(C3=CCOCC3)c3cncn3c2)c1	-6%[70.6 µM]
74	COc1ccc(CCNC(=O)C2CC(=O)N(c3n[nH]c4ccccc34)C2)cc1OC (configuration not stated)	-5%
75	O=C(c1ccc2c(c1)OCO2)N1CCCC2(C1)NC(=O)N(Cc1ccc(Cl)cc1)C2=O (configuration not stated)	-5%
76	COc1ccc(C(=O)N[C@H]2COC[C@H]2Cc2cc(C)no2)c(F)c1F	0%
77	COc1ccc(-c2ccc3c(c2)C(=O)N2CCN(C(=O)c4cccnc4)C[C@@H]2C(=O)N3)cc1	0%
78	Cc1cnc(C(=O)N2CCC(N3C[C@H](O)C[C@H]3C(=O)NC3CCCCC3)CC2)cn1	5%
79	CN(C)c1ccc(C(=O)N2CCN(c3cc(-c4cccs4)[nH]n3)CC2)cc1	-14%
80	COC(=O)c1ccc2c(c1)nc1n2[C@@H](CNS(=O)(=O)c2ccccc2)COC1	-24%[70.6 µM]
81	Cc1oc(C(O)c2cccc(O)c2)nc1C(=O)Nc1ccccc1 (configuration not stated)	-23%[70.6 µM]
82	COCC(=O)NC[C@H]1O[C@@H](CC(=O)NCCN(C)C)[C@H](O)[C@@H]1O	1%[70.6 µM]
83	CC(C)(C)c1nc(N2CCOCC2)ncc1C(=O)O	1%
84	Cc1ccc(C(=O)N2CCC(CCC(=O)N3CCc4ccccc4C3)CC2)cc1	?
85	COCC(=O)NC[C@H]1O[C@@H](CO)[C@@H](O)[C@H]1N1CCN(c2ccc(F)cc2)CC1	6%
86	Cc1ccc([S+](=O)([O-])N(C)Cc2ccc(-c3ccccc3)cc2)cc1	?
87	O=C(CN1C(=O)NC(c2ccc(Cl)cc2)C2=C1COC2=O)Nc1cccc(C(F)(F)F)c1 (configuration not stated)	?
88	COc1ccccc1C(=O)N1CC(Oc2ccc(-c3nc(C)no3)cc2)C1	-14%
89	CN(Cc1ccccc1)C(=O)[C@H]1O[C@H](CCN2CCN(c3ccc(F)cc3)CC2)CC[C@@H]1O	6%
90	O=C(NCCn1ccn2nc(-c3ccc(F)cc3)cc2c1=O)c1cc(Cl)ccc1F	-6%
91	Fc1ccc(OCc2nc(C3CCCN3)no2)cc1 (configuration not stated)	-9%
92	C[C@@H](NC(=O)c1ccccc1)c1onc(-c2cccnc2)c1C(=O)O	-2%[70.6 µM]
93	Fc1ccc(CCC2CCCN(Cc3nccs3)C2)cc1F (configuration not stated)	-7%
94	Cn1nc(C(=O)N2CCCCCC2c2nnc(-c3ccccc3)o2)c2ccccc21 (configuration not stated)	-7%
95	COc1ccccc1N1CCN(C(=O)CC[C@]23CC[C@](C)(O)C[C@H]2C(C)(C)C[C@@H]3NC(=O)c2cccnc2)CC1	-1%
96	Cc1nc(C2(C)CCN(C(=O)CCc3cc(Cl)no3)CC2)no1	-2%
97	CO[C@@H]1COCC[C@H]1NC(=O)CCCc1nc(-c2ccccc2C)no1	-1%
98	CC(=O)Nc1cccc(C(=O)N2CCC(n3cc(-c4nc(C)no4)nn3)C2)c1 (configuration not stated)	2%
99	Cc1nn(-c2ccc(C(C)(C)C)cc2)c(C)c1[C@@H]1C=C[C@@H](NC(=O)CCCC(=O)O)C1	-11%[70.6 µM]
100	COc1cccc(CNC(=O)CCC2CCN(C(=O)c3ccccc3)CC2)c1OC	1%
101	c1ccc2sc(CCCn3cc(-c4cncnc4)nn3)nc2c1	6%
102	Cc1[nH]c2c(F)cccc2c1CC(=O)N1CCCC2(CC1)CN(C)C(=O)O2 (configuration not stated)	-1%
103	CCOCC(=O)Nc1ccc2ncnc(N3CCCCC3)c2c1	6%
104	CCCCNC(=O)c1cccc2c1CCN2S(=O)(=O)c1cccc(C)c1	?
105	OC1CCN(c2ccnc(N3CC[C@@H](c4ccc5c(c4)OCO5)[C@H](O)C3)n2)CC1	1%
106	Cc1ccsc1-c1[nH]nc2ncc(-c3c(C)noc3C)nc12	-13%[70.6 µM]
107	Cc1cn2nc(C(=O)N3CCC(NC(=O)c4ccc(C)s4)CC3)cc2c(=O)[nH]1	16%
108	COc1ccc(-c2ccnc(N[C@H]3CO[C@H]4[C@@H]3OC[C@H]4OC(=O)Nc3cccc(OC)c3)n2)cc1	-12%
109	C[S+](=O)([O-])CCn1ncc2cc(OCC3CCN(C(=O)c4cccc(F)c4F)CC3)ccc21	-3%
